D2 PAM: human D2 receptor positive allosteric modulation; DiscoveRx D2 beta-arrestin cells, luminescence, 90 min; 100% = 57 uM dopamine signal; potentiation, % (concentration not given with the values); 0.23% of 360,000 active; AID 624464; active = potentiation of 50% or more; inconclusive = 30% to 50%; inactive = 30% or less;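 also: compound concentration not given in the record; tested on top of an EC20 dose of dopamine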
Target sequence (P14416 whole entry, looked up): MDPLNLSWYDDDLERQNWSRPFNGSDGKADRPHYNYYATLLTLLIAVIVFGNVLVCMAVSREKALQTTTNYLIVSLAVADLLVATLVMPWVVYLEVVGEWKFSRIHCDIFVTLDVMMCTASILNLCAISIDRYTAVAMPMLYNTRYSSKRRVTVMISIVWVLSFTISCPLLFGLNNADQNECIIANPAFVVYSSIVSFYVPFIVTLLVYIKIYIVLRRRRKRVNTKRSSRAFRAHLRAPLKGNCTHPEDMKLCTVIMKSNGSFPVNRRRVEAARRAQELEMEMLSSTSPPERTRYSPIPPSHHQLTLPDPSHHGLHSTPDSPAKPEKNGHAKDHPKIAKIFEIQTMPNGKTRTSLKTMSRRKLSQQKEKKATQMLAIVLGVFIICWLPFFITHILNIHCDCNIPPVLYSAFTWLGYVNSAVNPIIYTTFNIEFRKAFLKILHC
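PathHunter D2 cells, attached overnight at 37 deg C, received compound in DMSO plus dopamine at EC20 (50 nM final) for 90 min at 37 deg C. Beta-arrestin recruitment was read as luminescence after 1 h with detection reagent at ambient temperature.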
ClpP mod: qHTS Assay for Activators of ClpP | Potency, µM (highest dose often 57.5 µM), for inactives: at the top dose activity change, negative = active | purified B. subtilis ClpP, FRET peptide cleavage, 20 min | AID 651965, 2013 | 1.9% of 340,000 active | ATP-dependent Clp protease proteolytic subunit (Bacillus subtilis (strain 168)), P80244; active = well fitted falling curve with a large enough effect; inconclusive = small, poorly fitted or top-dose-only effect; inactive = no such curve, though single readings can be large or run the other way; also: potency is read from the fitted curve at half-maximal effect; the source files actives as falling curves though it sought activators and does not explain the sign; nearly all actives have a fitted effect of over 65% in size; many hits overshoot -100%
Target sequence (P80244 whole entry, looked up): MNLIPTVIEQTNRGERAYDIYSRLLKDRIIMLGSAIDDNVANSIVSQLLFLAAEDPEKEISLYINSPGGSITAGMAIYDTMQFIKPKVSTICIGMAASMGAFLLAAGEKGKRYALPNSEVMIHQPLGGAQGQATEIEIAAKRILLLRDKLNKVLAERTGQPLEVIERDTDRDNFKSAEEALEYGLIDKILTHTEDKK
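ClpP 10 microg/mL final, pH 8 Tris/KCl buffer with BSA, glycerol, Tween-20; compound pinned in; FRET-FV substrate; RT 20 min; Ex320/Em430; ΔFRET vs ADEP 5.8 microM, DMSO, no enzyme.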
* = called active by the depositor; ? = inconclusive.

Screens in order: D2 PAM	ClpP mod
Cn1cc(CN2CCC(C(=O)NC(c3ccc(F)cc3)c3ccc4ccccc4n3)CC2)c2ccccc21 (centres undefined)
 : -13	1.4%
CC1(C(=O)NCc2ccco2)Cc2c(-c3ccc4c(c3)OCO4)ccnc2O1 (centres undefined)
 : -5	5.0%
COc1ccc(S(=O)(=O)NC(=O)C2(C)CCN2C(=O)C2CCCCC2)cc1OC (centres undefined)
 : -2	1.2%
CC1(C(=O)NCCC(F)(F)F)Cc2c(-c3cccc(C(N)=O)c3)ccnc2O1 (centres undefined)
 : -16	-28%
CNC(=O)C1(C)Cc2c(-c3ccc(NC(C)=O)cc3)ccnc2O1 (centres undefined)
 : 3	4.9%
CC1(Cc2ccccc2Cl)C(=O)Nc2cc(-c3ccccc3Cl)ccc21 (centres undefined)
 : 0	-6.7%
COc1cccc(-c2cnc3c(NC=O)cc(-c4ccccc4)cn23)c1
 : -5	?
Cc1ccc2nc(-c3cccc(Br)c3)c(Cc3cccc(Cl)c3)n2c1
 : -7	-16%
COc1ccc(CNC(=O)Nc2nc(C(N)CCc3ccccc3)cs2)cc1 (centres undefined)
 : -4	0.2%
CC(=O)Nc1ccccc1-c1cccc2nccn12
 : 0	4.9%
CCc1nc2ccc(C(=O)NCCC(C)C)cn2c1N(C)Cc1ccc(OC)cc1
 : -6	-1.8%
OC(c1ccc(Cl)c(F)c1)c1ncc(-c2ccccc2F)[nH]1 (centres undefined)
 : -5	-0.3%
O=C(NCc1cccc(Cl)c1)c1ccc(-n2ccnc2)c2ccoc12
 : -23	-8.8%
CCCCNC(=O)C1(C)CCCCN1C(=O)c1ccc(OC)c(C(F)(F)F)c1 (centres undefined)
 : -8	0.5%
O=C(Nc1cccc(S(=O)(=O)C(F)(F)F)c1)[C@@H]1O[C@H](CO)[C@@H](O)[C@H]1O
 : 0	-2.8%
Cn1cc(-c2coc3c(C(=O)NCc4ccco4)cccc23)cn1
 : 0	-1.6%
CC1(C(=O)NS(=O)(=O)c2cccc(C#N)c2)CCN1C(=O)C1CCCCC1 (centres undefined)
 : 0	0.3%
OC(c1ccc(-c2ccccc2)cc1)c1ncc(-c2ccc(C(F)(F)F)cc2)[nH]1 (centres undefined)
 : 4	-7.7%
CC(=O)Nc1cccc(-c2ccnc3c2CC(C(=O)NC(C)C)O3)c1 (centres undefined)
 : -7	-26%
O=C(Nc1cccc2ccccc12)c1[nH]c(-c2ccccc2)c2c1C(=O)N(C1CC1)C2=O
 : 2	1.6%

Quoted from the entries so far for reference:
Screens in order: D2 PAM	ClpP mod
Cn1cc(-c2coc3c(C(=O)NCc4ccco4)cccc23)cn1
 : 0	-1.6%
CC1(C(=O)NS(=O)(=O)c2cccc(C#N)c2)CCN1C(=O)C1CCCCC1 (centres undefined)
 : 0	0.3%
OC(c1ccc(-c2ccccc2)cc1)c1ncc(-c2ccc(C(F)(F)F)cc2)[nH]1 (centres undefined)
 : 4	-7.7%
CC(=O)Nc1cccc(-c2ccnc3c2CC(C(=O)NC(C)C)O3)c1 (centres undefined)
 : -7	-26%
O=C(Nc1cccc2ccccc12)c1[nH]c(-c2ccccc2)c2c1C(=O)N(C1CC1)C2=O
 : 2	1.6%

Next section
Screens in order: D2 PAM	ClpP mod
OC(c1cccc(Cl)c1)c1nc(-c2ccoc2)cs1 (centres undefined)
 : -12	-4.7%
CC1(C(=O)NS(=O)(=O)Cc2cccc(Cl)c2)CCN1C(=O)Cc1ccccc1 (centres undefined)
 : -3	0.6%
CC(C)(C)c1ccc(C(=O)N2CCC2(C)C(=O)NS(=O)(=O)c2ccc(C#N)cc2)cc1 (centres undefined)
 : -31	-0.8%
O=C(NCCc1ccccc1)c1ccc(-c2cccnc2)c2ccoc12
 : -19	4.7%
Cc1ccc(C)c(C(O)c2ncc(-c3cccc(F)c3)[nH]2)c1 (centres undefined)
 : 2	-0.6%
COC(=O)c1cccc(CN2C(=O)C(C)Sc3ccc(C(C)=O)cc32)c1 (centres undefined)
 : -6	-7.2%
CC1(C(=O)NCCc2ccccc2)Cc2c(-c3ccc(C(N)=O)cc3)ccnc2O1 (centres undefined)
 : -3	-15%
CCCCN(C=O)c1c(CC)nc2c(OCc3cccc(Cl)c3)cccn12
 : -13	-1.8%
CSc1ccc(NC(=O)C2(C)CCN2C(=O)C2(c3ccccc3)CC2)cc1 (centres undefined)
 : -10	-0.4%
CC1(C(=O)NCc2ccco2)CCN1C(=O)C1(c2ccccc2)CC1 (centres undefined)
 : 1	-1.0%
NC(CCc1ccccc1)c1csc(NC(=O)Nc2cccc(Cl)c2)n1 (centres undefined)
 : 5	1.3%
CC(=Cc1ccccc1)C=C1SC(=S)N(CCCC(=O)Nc2ccc(C(=O)O)c(O)c2)C1=O
 : -10	1.1%
C=CCN1[C@H](COCc2ccccc2)C=CS1(=O)=O
 : -8	-2.8%
CCCNC(=O)C1(C)CCN(C(=O)c2cc(F)ccc2C)C1 (centres undefined)
 : -15	0.9%
Cc1ccc(C(NC(=O)C2CCN(Cc3ccc(Cl)c(Cl)c3)CC2)c2ccccn2)cc1 (centres undefined)
 : -4	-5.2%
O=C(c1[nH]c(C(F)(F)F)nc1-c1ccccc1)N1CCN(c2ccncc2)CC1
 : -2	0.3%
COc1ccc(NC(=O)C2(C)CCN2C(=O)Cc2ccc(Cl)cc2Cl)cc1OC (centres undefined)
 : -3	1.7%
CC(=O)c1cccc(Nc2ccc(C#N)cc2)c1
 : 2	0.5%
Cc1cc(C)c2c(CN(C)Cc3ccccc3)cc(=O)oc2c1
 : -6	-0.1%
CN(c1cc(Cl)c2c(c1)OCO2)c1cc2c(c3c1ccn3C)C1CCC2C1 (centres undefined)
 : 3	-5.9%
CCCC(=O)N1CCC1(C)C(=O)NS(=O)(=O)c1ccc(C#N)cc1 (centres undefined)
 : 0	-0.9%
CC[C@H](C)[C@@H](COC=O)NC(=O)[C@H]1O[C@@H](n2ccc(N)nc2=O)[C@H](O)[C@@H]1O
 : -3	-1.2%
NCc1csc(Nc2cc(Oc3ccccc3)ncn2)n1
 : -7	0.8%
Cc1cc2oc(=O)cc(CN3CCN(c4ccc(Cl)c(Cl)c4)CC3)c2cc1Cl
 : -5	-6.4%
CCc1nc2c(OCc3ccc(C(=O)OC)cc3)cccn2c1N(C)C(=O)c1ccc(C)cc1
 : -6	-0.9%
COc1ccc(NC(=O)c2cc(C3CCCCN3C(=O)c3ccc(C#N)cc3)on2)c(C)c1 (centres undefined)
 : -3	2.0%
CCOC1=C2[C@@H](CN(S(=O)(=O)c3ccc(C)cc3)[C@H]2c2ccccc2)[C@H]2C(=O)N(c3ccccc3)C(=O)[C@H]2C1
 : 6	-3.6%
CCOC(=O)C1=C[C@@H](C(C)(C)C)N(S(=O)(=O)c2ccc(OC)cc2)[C@H]1c1ccccc1
 : -10	-3.2%
CC1(C(=O)NS(=O)(=O)c2cccc(OC(F)F)c2)CCN1C(=O)Cc1ccccc1 (centres undefined)
 : 0	-1.2%
CSCCC(C(=O)Nc1c(C)cccc1C)N(C)CCc1ccccc1 (centres undefined)
 : -12	-0.5%
OC[C@@H]1CN(Cc2ccco2)C[C@H](n2cnc3c(NC4CCCC4)ncnc32)O1
 : -1	1.4%
CC(C)(C)c1ccc(C(O)c2ncc(-c3ccccc3F)[nH]2)cc1 (centres undefined)
 : -12	2.0%
NC(Cc1ccc(F)cc1)c1csc(Nc2ccc(S(N)(=O)=O)cc2)n1 (centres undefined)
 : -1	-10%
COc1cccc(-c2cnc3c(NC(C)=O)cc(-c4ccc(OC)c(OC)c4)cn23)c1
 : -9	-24%
CC(=O)Nc1cccc(-c2cc(NC(C)=O)c3ncc(-c4ccc(C(C)=O)cc4)n3c2)c1
 : 11	-19%
Cc1cccnc1C1=NOC(Cc2ccccc2)C(=O)N1Cc1ccccc1F (centres undefined)
 : -3	-4.3%
Cc1c(C(=O)NCc2ccc3c(c2)OCO3)sc(=O)n1Cc1ccc(S(C)(=O)=O)cc1
 : -4	-2.9%
O=C(Nc1nnc([C@H]2C[C@H](O)[C@@H](CO)O2)s1)c1ccc(Oc2ccccc2)cc1
 : -5	-1.5%
Cc1cnc(CNC(=O)c2csc(COCCO)n2)cn1
 : 3	-0.2%
CC1(C(=O)Nc2ccc3c(c2)OCO3)CCN1C(=O)Cc1ccc(-c2ccccc2)cc1 (centres undefined)
 : -4	-0.8%
CC(O)(c1ccccc1)c1nc(-c2ccc(F)c(Cl)c2)cs1 (centres undefined)
 : -11	-2.3%
CCOC(=O)C1(C)CCN1C(=O)c1cccs1 (centres undefined)
 : -11	2.6%
CC(=NOC(=O)c1ccc(I)cc1)c1nccs1
 : 0	-0.1%
CC(C)c1ccccc1NC(=O)Nc1nnc([C@H]2C[C@H](O)[C@@H](CO)O2)s1
 : -6	-3.9%
OC1c2cc(Br)ccc2N=C2CCCCCN21 (centres undefined)
 : -4	-23%
FC(F)(F)c1cc(Cl)c2nc(-c3ccc(Cl)cc3)c(Cc3ccccc3)n2c1
 : -2	?
OCCCNc1ncnc2c1ncn2[C@H]1CN(C2CCCC2)C[C@@H](CO)O1
 : -3	-11%
CC1(C(=O)NS(=O)(=O)c2cccs2)CCN1C(=O)CCc1ccc(Cl)cc1Cl (centres undefined)
 : 2	1.5%
COc1ccc(C(C)=O)cc1Cn1c(C)c(C(=O)NCc2cccc(C)c2)sc1=O
 : -4	-2.9%
O=C(CC[C@H]1O[C@@H](n2ccc(=O)[nH]c2=O)[C@H](O)[C@@H]1O)NCC(c1ccccc1)c1ccccc1
 : -9	0.4%
O=c1cc(CN2CCN(c3ccccc3)CC2)c2ccccc2o1
 : -4	0.0%
CN(C)CCNC(=O)c1cccc2c(-c3ccc(F)c(F)c3)coc12
 : -17	-6.0%
COc1ccc(F)cc1-c1cc(C(=O)Nc2ccc(C)c(NS(C)(=O)=O)c2)[nH]n1
 : -3	1.3%
O=C(NC(c1cccnc1)c1ccc2c(c1)OCO2)C1CCN(CCOc2ccc(Cl)cc2Cl)CC1 (centres undefined)
 : -15	-4.0%
COCCNc1nc(-c2cc(F)ccc2C)c2sc(-c3ccccc3)cc2n1
 : -5	4.6%
O=C(NCc1ccc(C(F)(F)F)cc1)c1ccc(-c2ccc(F)c(F)c2)c2ccoc12
 : 0	28µM*
COc1ccc(-c2nc3ccc(C)cn3c2CC(C)(C)C)cc1OC
 : -8	-26%
OC[C@@H]1CN(Cc2ccco2)C[C@H](n2cnc3c(NCc4ccc(F)cc4)ncnc32)O1
 : -4	-4.0%
COc1cccc(-c2cc3nc(NCc4ccc5occc5c4)n(C)c(=O)c3s2)c1
 : -2	?
COc1ccc(C(C)(O)c2nc(-c3cccs3)cs2)cc1 (centres undefined)
 : -2	0.6%

(list continues)
Screens in order: D2 PAM	ClpP mod
Cc1ccc(-c2nc3cc(C)c(Br)c(C)n3c2Cc2cccc(F)c2)cc1
 : 0	-7.0%
COc1ccc(CNC(=O)[C@@H](Cc2ccccc2)NC(=O)CC[C@H]2O[C@@H](n3ccc(=O)[nH]c3=O)[C@H](O)[C@@H]2O)cc1
 : -4	0.7%
Clc1ccccc1-c1cc2nc(NCCCn3ccnc3)ccn2n1
 : -5	-24%
COCCNC(=O)C1CCCN(C(=O)c2ccc(OC)c(F)c2)CC1 (centres undefined)
 : -3	0.4%
COc1ccc(C(C)(O)c2nc(-c3ccc4c(c3)OCO4)cs2)cc1 (centres undefined)
 : -12	-3.7%
CC(=O)Nc1cc(-c2ccc(F)cc2)cn2c(-c3ccc(F)c(Cl)c3)cnc12
 : -13	-25%
CCOC1=C2[C@@H](CN(S(=O)(=O)c3ccccc3C)[C@H]2c2ccc(Cl)cc2)[C@H]2C(=O)N(c3ccccc3)C(=O)[C@H]2C1
 : -5	-1.3%
CCCCNC(=O)C1(C)CCN1C(=O)c1cc(-c2cccs2)oc1C (centres undefined)
 : -6	-3.0%
Cc1ccc(OC2CCN(C(=O)[C@H]3O[C@@H](n4ccc(=O)[nH]c4=O)[C@H](O)[C@@H]3O)CC2)cc1
 : -3	1.0%
Cc1ccc(F)cc1C(=O)N1CCCC(c2cc(C(=O)Nc3ccccc3)no2)C1 (centres undefined)
 : -3	0.2%
OC[C@@H]1CN(Cc2ccc(Cl)cc2)C[C@H](n2cnc3c(N4CCCC4)ncnc32)O1
 : -3	-3.9%
OC[C@@H]1CN(Cc2ccc(F)cc2)C[C@H](n2cnc3c(N4CCOCC4)ncnc32)O1
 : -2	1.0%
O=C(Nc1cccc2c1CCCC2)c1cc(C2CCCCN2C(=O)OCCF)on1 (centres undefined)
 : -3	0.2%
CC(C)Nc1nc(Nc2ccc(Cl)cc2F)c2sccc2n1
 : -13	-6.2%
COCCNC(=O)C1(C)CCN(Cc2ccc3ccccc3c2Br)C1 (centres undefined)
 : -11	-1.1%
N#CCCN(Cc1ccccc1)C(C(=O)NC1CCCCC1)c1ccnc2ccccc12 (centres undefined)
 : -6	-1.7%
COc1ccccc1-c1cc2nc(NCCc3ccc(S(N)(=O)=O)cc3)ccn2n1
 : -5	4.5%
CC(=O)Nc1cccc(-c2ccnc3c2CC(C(=O)Nc2ccc(Cl)cc2)O3)c1 (centres undefined)
 : -6	-4.8%

This is a subset; the hit share may differ from the screen's.
